MbtI inh: blocks the Mycobacterium tuberculosis siderophore enzyme MbtI; P9WFX0; purified MbtI enzyme, fluorescence intensity read-out; inhibition, %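 (about 17 µg/mL by stock and volumes)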; 100,000 compounds, 0.89% hits; AID 493033;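 active = above 50% in both replicates, above 80% if mildly self-fluorescent; inactive = the rest, strongly fluorescent compounds included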;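 note: 0% = mean of negative and 100% = mean of positive controls; one replicate is shown; some compounds called inactive have numbers as strong as hits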
Polio RdRp inh: inhibitors of poliovirus RNA polymerase binding and polymerization; poliovirus polymerase elongation, fluorescence polarization; active compounds read low; 150,000 compounds, 0.66% hits; % elongation, % (compound at 16.7 µg/mL); in the data active = % elongation below about 90%; note: some results filed as inactive read as strong as hits
Target sequence (P03300 1749-2209 limits assumed): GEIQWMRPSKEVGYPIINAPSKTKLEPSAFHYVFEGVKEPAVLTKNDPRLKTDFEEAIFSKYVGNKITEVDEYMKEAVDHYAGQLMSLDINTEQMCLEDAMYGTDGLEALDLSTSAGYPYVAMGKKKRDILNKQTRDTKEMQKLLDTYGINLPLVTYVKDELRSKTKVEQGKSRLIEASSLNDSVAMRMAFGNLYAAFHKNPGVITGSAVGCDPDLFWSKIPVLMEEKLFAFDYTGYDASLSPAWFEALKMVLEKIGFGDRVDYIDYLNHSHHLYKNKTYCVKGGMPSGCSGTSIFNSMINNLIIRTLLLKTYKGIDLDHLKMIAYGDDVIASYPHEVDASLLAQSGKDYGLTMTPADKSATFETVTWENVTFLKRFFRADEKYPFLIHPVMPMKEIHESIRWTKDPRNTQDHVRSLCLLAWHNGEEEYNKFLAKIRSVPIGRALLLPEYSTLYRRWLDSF
Mtb MenB inh: blocks the Mycobacterium tuberculosis MenB enzyme; P9WNP5; MenB enzyme assay, absorbance read-out; some hits fall short of the stated cut; inhibition, %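 (about 12 µg/mL by stock and volumes)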; 100,000 compounds, 0.43% hits; AID 540299;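 active = mean of two replicates above 30%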;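 note: 0% = no compound and 100% = wells with inactive enzyme; the first replicate is given; strong numbers were not always called active; inactives centre near -10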
Target sequence (P9WNP5 whole entry, looked up): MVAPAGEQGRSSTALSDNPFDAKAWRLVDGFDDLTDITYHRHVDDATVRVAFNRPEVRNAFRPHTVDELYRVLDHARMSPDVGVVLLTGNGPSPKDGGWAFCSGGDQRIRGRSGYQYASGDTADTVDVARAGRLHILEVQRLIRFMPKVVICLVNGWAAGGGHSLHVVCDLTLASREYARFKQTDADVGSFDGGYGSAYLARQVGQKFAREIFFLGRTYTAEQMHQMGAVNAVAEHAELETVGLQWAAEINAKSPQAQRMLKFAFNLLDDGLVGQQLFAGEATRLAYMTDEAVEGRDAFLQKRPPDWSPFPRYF
Polio RdRp inh intensity: further read-out of Polio RdRp inh, marked with its call; % elongation; measured here: total intensity read-out; formula for this scale not given here;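 total fluorescence in place of polarization; lower means less elongation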
* = called active by the depositor; x = no result given; & = joins results of further samples.

Structure,MbtI inh,Polio RdRp inh,Polio RdRp inh intensity,Mtb MenB inh
O=C(c1ccccc1)c1coc2ccccc2c1=O,-30,99,100,-14
C/C(=N\OCC(=O)Nc1ccc(S(=O)(=O)N2CCOCC2)cc1)c1ccc2c(c1)OCCO2,-7,101,100,-17
Cc1ccc(C)n1-c1ccc(C(=O)OCC(=O)c2cccs2)cc1,1,113,116,-13
Nc1c(-c2nc(-c3ccc4c(c3)OCO4)no2)nnn1-c1cccc(C(F)(F)F)c1,11,99,96,-22
O=C(C1CCCCC1)N(c1ccc(Cl)nn1)C1CCCCC1,-11,103,103,-16
CCCS(=O)(=O)c1csc(C(=O)OC)c1NNS(=O)(=O)c1ccccc1C(F)(F)F,2,104,105,-16
COCc1cc(C)nc2snc(Br)c12,x,105,106,-1
CCN1C(=O)/C(=N\N2C(=O)CSC2=S)c2ccccc21,0,94,81,-54
CC1(C)CC(=O)C2=C(C1)c1c(ccc3ccccc13)NC2c1ccc(Br)o1 (stereo not drawn),-270,101,103,-13
CC(C)(C)C(=O)O/N=C(\N)Cc1ccc(-c2csnn2)cc1,6,100,98,4
OCCN(CC(O)Cn1ccc2ccccc21)CC(O)Cn1ccc2ccccc21 (stereo not drawn),6,99,103,1
N#Cc1c(C(F)(F)F)cc(-c2ccco2)nc1SCc1ccncc1,87,107,107,-57
O=C(Nc1ccccc1C(F)(F)F)C1CC2CCCC(C1)C2=O (stereo not drawn),-2,102,104,-13
CC(C)S(=O)(=O)c1cscc1N/C=C(/C#N)C(=O)c1cccs1,10,108,101,-34
COc1cc2c(C#N)c(OC)nc3c2c(n1)NC(C)(c1ccc(Br)cc1)N3 (stereo not drawn),99,103,111,-14
COc1ccc(CCn2cnc3oc(-c4ccccc4)c(-c4ccccc4)c3c2=N)cc1OC,9,101,104,-18
CC(C)(CO)NC(=O)c1ccc(Cl)c(S(=O)(=O)N2CCCCC2)c1,-20,102,102,-2
CCNc1sc(S(=O)(=O)CC)nc1S(=O)(=O)c1ccc(C)cc1,-1,104,107,-8
O=C(CCC1Nc2c3ccccc3nc(=S)n2C1=O)N1CCN(c2ccccc2)CC1 (stereo not drawn),2,101,107,-37
CCN(CC)C(=O)c1nn(C)c(=O)c2ccccc12,x,105,114,-8
CCc1cccc2c(CCNC(=O)COc3ccc(F)cc3F)c(C)[nH]c12,x,110,106,-28
CCOC(=O)c1nnn2c1nc(Sc1nnc(-c3ccncc3)o1)c1ccccc12,-8,102,97,21
CCSC1=NCCN1C(=O)c1cccc(C(F)(F)F)c1,-2,102,106,-27
COC(=O)c1ccc(Oc2nc(C)cc(N)n2)cc1,-25,99,102,1
NC(=O)NC(=O)COc1ccccc1Br,-1,108,110,1

Full records as entered above. Values in the order: MbtI inh, Polio RdRp inh, Polio RdRp inh intensity, Mtb MenB inh
Results for CC1(C)CC(=O)C2=C(C1)c1c(ccc3ccccc13)NC2c1ccc(Br)o1 (stereo not drawn) = -270, 101, 103, -13
Results for CC(C)(CO)NC(=O)c1ccc(Cl)c(S(=O)(=O)N2CCCCC2)c1 = -20, 102, 102, -2
Results for CC(C)(C)C(=O)O/N=C(\N)Cc1ccc(-c2csnn2)cc1 = 6, 100, 98, 4
Results for CCN1C(=O)/C(=N\N2C(=O)CSC2=S)c2ccccc21 = 0, 94, 81, -54
Results for CCc1cccc2c(CCNC(=O)COc3ccc(F)cc3F)c(C)[nH]c12 = x, 110, 106, -28

Later entries:
Structure,MbtI inh,Polio RdRp inh,Polio RdRp inh intensity,Mtb MenB inh
Cc1[nH]n(CCC#N)c(=O)c1C1=NCCCCC1,3,106,107,-34
CC(C)CC12CN3CCN(CC(C3)/C1=N/O)C2,-11,101,103,21
COc1cccc(C2=NS(=O)(=O)N(C)C(C(=O)N(C)C3CCCCC3)=C2)c1,-28,102,100,-23
CCN(CC)/N=N/c1[nH]nc2nc(C)cc(C)c12,x,109,108,-19
Cc1cc2c(cc1C)NC(CC(=O)Nc1ccccc1C)C(=O)N2 (stereo not drawn),-4,101,107,x
CCCc1cc(C(=O)OC)c(NC(=O)CCCC(=O)O)s1,26,101,99,-4
c1cncc(-c2csc(Nc3nc4cc5c(cc4s3)OCO5)n2)c1,-5,100,104,-20
CCC(C)N1C(=O)/C(=C\c2cnn(-c3ccccc3)c2)C(=O)NC1=S (stereo not drawn),80*,99,100,-30
COC(=O)c1c(NC(=O)CSc2nc(-c3ccco3)cc(C(F)(F)F)n2)sc2c1CCCC2,57*,99,101,-5
Fc1ccc(CSc2nc3ncccc3[nH]2)c(Cl)c1,x,107,110,-14
COc1ccc(S(=O)(=O)N(C)CCO)cc1-c1nnc2c3ccccc3c(C)nn12,14,102,107,1
CN(C)c1ccnc2sc(C(N)=O)c(N)c12,-16,98,104,-60
Cc1cc(OCC(O)CNC(C)(C)C)ccc1C(C)C (stereo not drawn),-7,101,100,x
CCOC(=O)c1c(C)oc2nc(COc3cc(Cl)ccc3Cl)nc(N)c12,-5,103,106,-2
CSc1ccccc1NC(=O)c1cc(-c2ccccc2)on1,-6,100,103,-12
O=C(CCc1nc2ccccc2[nH]1)NCc1ccc(F)cc1Cl,-8,102,105,-28
Cn1c(NCc2ccccc2)nc2ccccc21,x,108,111,-17
O=C(COC(=O)C1CC2C=CC1C2)Nc1cccc(C(F)(F)F)c1 (stereo not drawn),-2,106,112,-10
Cc1cc2cc(CN(Cc3ccccc3)C(=O)N(C)C)c3nnnn3c2cc1C,3,101,103,24
Cc1nn(-c2ccc(F)cc2)c(Cl)c1C=Nc1cccc(C#N)c1,-15,103,108,x
Cc1cccnc1Nc1nc(-c2cccnc2)cs1,5,103,103,-21
O=C(COc1ccc(Cl)cc1Cl)NCCO,0,104,107,3
FCCOc1ccc(OCCF)cc1,-11,101,100,-5
COc1ccccc1NC(=O)Cc1noc(CSc2cccc[n+]2[O-])n1,5,105,113,-18
CCOC(=O)c1c(C)nc2c(c1-c1cccnc1)C(=O)c1ccccc1-2,3,x,x,-23
Cc1ccc2c(c1)c1nc3ccccc3nc1n2C(C)C,-6,98,102,-7
O=C(c1ccc(S(=O)(=O)N2CCOCC2)cc1)N1CCN=C1SCc1c(F)cccc1Cl,-6,102,106,-17
O=C(OC1CCOC1=O)c1cc(-c2ccco2)nc2ccccc12 (stereo not drawn),74,93,98,-31
O=C(CCc1c[nH]c2ccccc12)OCc1c(Cl)cccc1Cl,-15,101,99,-8
CCOC(=O)c1c(C)n(C)c2ccc(OCC(O)CN3CCCCCC3)cc12 (stereo not drawn),4,101,101,16
CCSc1nnc(-c2cccs2)n1Cc1ccccc1,-125,101,110,-12
CN(C)C(CNC(=O)Nc1cccc(Cl)c1)c1cccnc1 (stereo not drawn),-5,101,106,7
O=C(/C=C\c1ccco1)Nc1c2c(nn1-c1ccc(Cl)cc1)CSC2,33,103,105,-24
CC(C)(C)C(=O)CSc1ncnc2nc[nH]c12,x,103,106,7
O=C1c2ccccc2C2CC(c3ccc(Cl)cc3)=NN12 (stereo not drawn),2,100,101,8
Cc1noc(C)c1CSc1ccccc1C(=O)Nc1nc(SCc2ccc(Cl)cc2)n[nH]1,-1,98,88,-39
CCn1c(=O)c(-c2c(C)[nH]c3ccccc23)nc2cc(S(=O)(=O)N(C)C)ccc21,-3,121,121,-71
O=C(CC(=O)Nc1ccccc1OC(F)(F)F)Nc1ccccc1OC(F)(F)F,-22,109,114,-6
CCC(C)c1ccc(NC(=O)CC#N)cc1 (stereo not drawn),-7,106,108,-7
O=C(CCC1CCCC1)N1CCN(C(=O)c2cccnc2)CC1,62,103,105,21
O=C(/C=C/c1ccco1)N(Cc1cccs1)C1CCS(=O)(=O)C1 (stereo not drawn),4,104,105,-21
Cc1ccc(C(NC=O)c2ccccc2)cc1 (stereo not drawn),-2,101,99,-10
COc1cccc(NC(=O)COc2coc(CSc3nncn3C)cc2=O)c1,0,108,108,-24
C=CCOc1cccc(NC(=O)Nc2ccccc2)c1,-10,103,103,-17
O=C(O)C1C2C=CC(C2)C1C(=O)Nc1ccc(Cl)cc1 (stereo not drawn),-3,102,103,4
c1ccc2[nH]c(CSc3nnnn3C3CCCCC3)nc2c1,1,103,106,-60
O=C1CC(=O)N(C2CCCCC2)C(=O)N1,-2,100,100,-47
COc1ccc(OC)c(S(=O)(=O)NCCc2sc(-c3ccc(OC)c(OC)c3)nc2C)c1,109,101,107,-18
O=C(O)c1ccccc1SCC1CCCO1 (stereo not drawn),-1,102,103,1
CC(CN1CCCC1)OC(=O)c1cc(C(C)(C)C)cc(C(C)(C)C)c1 (stereo not drawn),-4,102,96,-34

Continued.
Structure,MbtI inh,Polio RdRp inh,Polio RdRp inh intensity,Mtb MenB inh
Cc1n[nH]c(C)c1Nc1cnn(C23CC4CC(CC(C4)C2)C3)c(=O)c1Cl,5,101,99,4
CC(c1ccccc1)C1OCC(C[N+]2(C)CCCCC2)O1 (stereo not drawn),0,102,104,-9
C/C(Cn1nnc2ccccc21)=N/OC(=O)c1c(F)cccc1F,2,103,102,-20
C/C(CC1CC(COCCC(C)C)OC1=O)=N\NC(N)=S (stereo not drawn),-11,101,101,12
CC1CN=C(Nc2ccc(F)cc2)S1 (stereo not drawn),27,99,108,-4
CC(c1ccccc1F)n1cc(C(=O)Nc2ccc3nc[nH]c3c2)nn1 (stereo not drawn),-1,100,100,10
CC1CCCC(C)N1C(=O)COC(=O)c1ccc(N2C(=O)c3ccccc3C2=O)cc1 (stereo not drawn),12,98,102,2
C[C@@]1(CO)[C@H](O)CC[C@@]2(C)[C@H]1CC[C@H]1C[C@@H]3C[C@@]12CC[C@]3(O)CO,-27,102&100,100&99,-9
COc1cc(/C=C\C(=O)NCc2ccc3[nH]c4c(c3c2)CCCC4)cc(OC)c1OC,-13,102,105,-17
CNC(=O)CN(C)Cc1c(O)c(C(=O)NCc2ccccc2)cc2ccccc12,36,107,106,-40
COCCNC(=O)c1ccc(C(=O)NCCOC)cc1,-3,98,102,-5
CCNc1nc2nc3ccc(C)cn3c(=O)c2cc1C(=O)NCC1CCCO1 (stereo not drawn),91,102,107,-165
O=C(COc1ccccc1)OC1OCCOC1OC(=O)COc1ccccc1 (stereo not drawn),-1,97,103,-10
c1ccc2[nH]c(C3CCNCC3)nc2c1,x,107,107,-20
CC(=O)N/N=C/c1ccc(-c2ccc(F)c(Cl)c2)o1,-5,100,103,-4
COc1ccc(OC)c(NC(=O)c2cccs2)c1,x,106,108,-20
O=C(CCC(=O)n1ncc2ccccc21)NC1CCCCC1,-6,107,109,-25
Cc1ccc(NC(=O)C2(NS(=O)(=O)c3cccc4cccnc34)CCCCC2)cc1,2,100,97,-14
COc1ccc(NC2SC(=O)N(c3ccccc3)C2=O)cc1 (stereo not drawn),-2,100,102,5
CC(C)[C@H](NC(=O)CNC(=O)OC(C)(C)C)C(=O)N[C@H](C=O)C(C)C,-11,105&103,103&101,-8
CCSc1nnc2nc(C)cc(C)n12,-7,101,100,-4
C1CCN(c2nc(N3CCCC3)nc(N3CCNCC3)n2)C1,-22,100,102,33*
Cc1cccc(Nc2nc(C)cc(C)c2C#N)c1,3,104,106,-10
O=c1cc(O)n(-c2ccccc2)c(=S)n1-n1c(=O)cc(O)n(-c2ccccc2)c1=S,x,105,98,-12
COC1=CC(=O)C=C(OC)C1=O,12,102,103,-5
CCn1cc(CNC(=O)CCCSc2nc(-c3ccco3)cc(C(F)(F)F)n2)cn1,-19,102,102,-18
O=C1C(C=NC2CCCCCC2)=C(O)c2ccccc21,14,101,103,-13

A second format for some results above:
CC(C)[C@H](NC(=O)CNC(=O)OC(C)(C)C)C(=O)N[C@H](C=O)C(C)C
  MbtI inh: -11
  Polio RdRp inh: 105&103
  Polio RdRp inh intensity: 103&101
  Mtb MenB inh: -8
CCSc1nnc2nc(C)cc(C)n12
  MbtI inh: -7
  Polio RdRp inh: 101
  Polio RdRp inh intensity: 100
  Mtb MenB inh: -4

Assay outcomes: PubChem BioAssay, ICCB-Longwood Screening Facility, Harvard Medical School
